Bioassay records as filed in PubChem.
EphB4 antag: blocks human EphB4 binding to ephrin-B2; AID 720; EphB4 LBD / TNYL-RAW-Alexa532 peptide, fluorescence polarization; P54760; inhibition, % at 7 µM; 0.15% of 97,000 active;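 active = inhibition above the screen-wide mean inhibition plus 3 SD, cut at about 15% in these data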;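 also: 0% = DMSO wells and 100% = excess unlabeled TNYL-RAW peptide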
Target sequence (P54760 whole entry, looked up, the tested form may be a part): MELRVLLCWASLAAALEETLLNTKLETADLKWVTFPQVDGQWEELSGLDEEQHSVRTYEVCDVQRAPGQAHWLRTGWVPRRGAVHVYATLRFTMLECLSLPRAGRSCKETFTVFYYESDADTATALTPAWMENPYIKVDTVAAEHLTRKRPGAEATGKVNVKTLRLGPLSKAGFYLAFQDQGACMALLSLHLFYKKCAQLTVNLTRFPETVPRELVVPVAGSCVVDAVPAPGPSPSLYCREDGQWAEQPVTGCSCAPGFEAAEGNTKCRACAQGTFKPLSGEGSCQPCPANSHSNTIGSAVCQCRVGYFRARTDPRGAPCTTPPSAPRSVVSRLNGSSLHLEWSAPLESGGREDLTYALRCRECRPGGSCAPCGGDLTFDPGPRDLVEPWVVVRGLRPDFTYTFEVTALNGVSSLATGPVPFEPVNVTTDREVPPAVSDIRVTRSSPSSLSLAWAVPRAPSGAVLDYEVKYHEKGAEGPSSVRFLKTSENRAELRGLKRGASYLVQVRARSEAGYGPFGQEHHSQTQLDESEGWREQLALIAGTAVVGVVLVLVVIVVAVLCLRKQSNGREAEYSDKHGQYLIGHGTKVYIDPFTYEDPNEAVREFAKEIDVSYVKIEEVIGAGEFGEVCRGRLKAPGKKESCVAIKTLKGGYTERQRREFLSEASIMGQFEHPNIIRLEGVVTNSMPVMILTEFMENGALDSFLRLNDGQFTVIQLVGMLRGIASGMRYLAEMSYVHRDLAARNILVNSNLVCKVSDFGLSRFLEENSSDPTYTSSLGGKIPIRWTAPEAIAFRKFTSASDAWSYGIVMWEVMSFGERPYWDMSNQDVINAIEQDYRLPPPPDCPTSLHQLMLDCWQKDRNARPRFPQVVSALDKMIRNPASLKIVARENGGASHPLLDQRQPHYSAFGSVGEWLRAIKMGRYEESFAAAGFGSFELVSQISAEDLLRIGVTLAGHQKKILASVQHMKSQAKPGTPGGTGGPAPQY
Rev-RRE block: inhibitors of HIV-1 Rev-RRE RNA interaction; P05866; Rev peptide-RRE RNA binding, FRET; inhibition, % at 8 µM; 0.79% of 97,000 active; AID 704;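 active = inhibition above the screen-wide mean plus 3 SD, cut at about 35% in these data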;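 also: 0% = median DMSO wells and 100% = median Neomycin B control wells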
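Test system – labelled RRE RNA duplex and labelled Rev peptide · Reagent – labelled Rev peptide · Doses – one concentration, 8 µM nominal · Incubation – 5 + 15 min at 25 °C · Signal – FRET fluorescence readout · Read-out basis – % inhibition of FRET ratio versus controls · Control set – DMSO wells as 0% and neomycin B wells as 100% inhibition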
PLAP act: activators of human placental alkaline phosphatase | activation fold at 20 µM | 1.2% of 96,000 active | P05187 | purified PLAP enzyme, luminescent substrate read-out; active compounds read high; in the data active = activation fold above about 2
PLK1 inh: PLK1 (human) kinase inhibition; P53350; inhibition, % at 10 µM; 0.53% of 97,000 active; recombinant PLK1 kinase, TR-FRET peptide phosphorylation;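 active = inhibition of 50% or more in the single-concentration screen; inactive = inhibition below 50%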;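 also: 0% = DMSO max control and 100% = H-89 dihydrochloride min control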
PLK1 PBD inh: blocks phosphopeptide binding to human Plk1 polo box domain | AID 693 | 0.13% of 97,000 active | inhibition, %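 (tested at about 20 µM)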 | Plk1 PBD phosphopeptide binding, fluorescence polarization; in the data active = inhibition above about 34%, passing the limit was not always enough
Active calls of the source: *. A portion of the library; count on the stated rates, not on these rows.

Labels used below: A = EphB4 antag; B = Rev-RRE block; C = PLAP act; D = PLK1 inh; E = PLK1 PBD inh
1	Cc1ccc2cc3cc(C(=O)N4CCC5(CC4)OCCO5)oc3nc2c1
  A = -1.5; B = 3.9; C = 1.1; D = -0.2; E = -33.2
2	CCOC(=O)CC1=C(C(=O)OCC)C2(C(=O)N1CC(=O)OC)C(C#N)=C(N)Oc1ccccc12 (stereo unspecified)
  A = 5.1; B = -0.1; C = 1.1; D = -4.4; E = -2.2
3	COc1cccc(-n2c(O)c(C=NCc3ccc4c(c3)OCO4)c(=O)[nH]c2=O)c1
  A = 5.9; B = 2.8; C = 1; D = -1.5; E = 7.2
4	NC(=O)CSc1nnc([C@@H](N)Cc2c[nH]c3ccccc23)o1
  A = -9.7; B = -0.9; C = 1; D = -6.2; E = -28.8
5	CC1(C)CC(=O)C2=C(C1)NC(=O)C21C(C(=O)OC(C)(C)C)=C(N)Oc2ccc(Br)cc21 (stereo unspecified)
  A = -2.5; B = -0.5; C = 1.4; D = -5.7; E = -8.9
6	O=C(Nc1ccc(F)cc1F)c1cccnc1Oc1cccc(C(F)(F)F)c1
  A = 1.4; B = 6.5; C = 0.8; D = -9.2; E = -8.7
7	COc1ccc(OCC(=O)Nc2ccc(Cl)cc2C(=O)c2ccccc2)cc1
  A = -2.8; B = 9.6; C = 1; D = -3.0; E = -15.3
8	CCCS(=O)(=O)N1CCCC(C(=O)N2CCC3(CC2)OCCO3)C1 (stereo unspecified)
  A = -6.0; B = 3.5; C = 1; D = -9.3; E = 5.6

Grouped by structure, the entries above with an aryl methoxy group (two)
Labels used below: A = EphB4 antag; B = Rev-RRE block; C = PLAP act; D = PLK1 inh; E = PLK1 PBD inh
3	COc1cccc(-n2c(O)c(C=NCc3ccc4c(c3)OCO4)c(=O)[nH]c2=O)c1
  A = 5.9; B = 2.8; C = 1; D = -1.5; E = 7.2
7	COc1ccc(OCC(=O)Nc2ccc(Cl)cc2C(=O)c2ccccc2)cc1
  A = -2.8; B = 9.6; C = 1; D = -3.0; E = -15.3

Profiles from above:
`CCOC(=O)CC1=C(C(=O)OCC)C2(C(=O)N1CC(=O)OC)C(C#N)=C(N)Oc1ccccc12` (stereo unspecified) across the screens: EphB4 antag: 5.1; Rev-RRE block: -0.1; PLAP act: 1.1; PLK1 inh: -4.4; PLK1 PBD inh: -2.2
`NC(=O)CSc1nnc([C@@H](N)Cc2c[nH]c3ccccc23)o1` across the screens: EphB4 antag: -9.7; Rev-RRE block: -0.9; PLAP act: 1; PLK1 inh: -6.2; PLK1 PBD inh: -28.8
